Compound activity: PubChem BioAssay, several laboratories
UUG fidelity – modulators of yeast start codon fidelity, primary screen, whole organism, S. cerevisiae, single point, plate reader; AID 602363, 2012; S. cerevisiae UUG-firefly luciferase reporter, luminescence/redox ratio; 350,000 compounds, 0.13% hits; activity score, % at 18.7 µM;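 active means replicate mean at a twofold rise or more, about +100% in these data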;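 further: firefly luciferase made from a UUG start codon reports start codon fidelity; reporter light over untreated wells divided by growth signal over untreated wells; some hits fall short of that in this replicate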
CSC inhib – cancer stem cell viability inhibitors, primary screen, luminescence | cancer stem cell-like cells viability | 300,000 compounds, 1.1% hits | inhibition, % at 7.5 µM;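 active means mean at 75% or more and at least half the replicates too; inconclusive means mean and replicates disagree; tested in HMLE shEcad cells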;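 further: 0% = median of negative and 100% = median of positive control wells; the first replicate is given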
PABP polyA inh – PABP poly(A) RNA binding inhibitors, primary screen, biochemical, fluorescence polarization, uHTS | Polyadenylate-binding protein 1 (Homo sapiens), P11940 | AID 2014, 2009 | inhibition, % at 35 µM | 290,000 compounds, 1% hits;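 active means 50% or more with normal probe brightness, or confirmed in later tests; inconclusive means above 50% with abnormal brightness, or retests that disagree; inactive means below 50% or failed in later tests; about a fifth of its hits are not listed in these tables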;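 further: calls also rest on retests at 20 µM and on dose response follow-up; controls were probe without protein and protein plus probe with vehicle; some compounds called inactive have numbers as strong as hits; many hits fall short of the cut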
Target sequence (P11940 whole entry, looked up): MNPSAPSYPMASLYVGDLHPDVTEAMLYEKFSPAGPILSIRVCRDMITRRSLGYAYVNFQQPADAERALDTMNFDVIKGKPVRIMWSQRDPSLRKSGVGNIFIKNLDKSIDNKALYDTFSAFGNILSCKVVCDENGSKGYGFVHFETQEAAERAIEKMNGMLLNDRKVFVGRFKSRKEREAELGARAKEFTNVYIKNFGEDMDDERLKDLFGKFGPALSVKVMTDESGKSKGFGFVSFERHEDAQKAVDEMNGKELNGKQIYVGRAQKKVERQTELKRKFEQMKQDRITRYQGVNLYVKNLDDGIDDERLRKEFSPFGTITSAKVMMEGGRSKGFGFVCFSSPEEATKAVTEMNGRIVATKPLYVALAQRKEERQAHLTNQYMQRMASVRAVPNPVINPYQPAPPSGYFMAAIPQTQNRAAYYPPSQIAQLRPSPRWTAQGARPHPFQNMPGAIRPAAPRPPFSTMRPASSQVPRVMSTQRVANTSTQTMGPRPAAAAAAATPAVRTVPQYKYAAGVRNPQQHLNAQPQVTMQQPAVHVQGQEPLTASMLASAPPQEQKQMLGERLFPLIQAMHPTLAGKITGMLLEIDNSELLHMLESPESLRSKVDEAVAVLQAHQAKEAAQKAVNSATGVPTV
HIV Env fusion – inhibitors of HIV-1 Env-driven cell-cell fusion, primary screen, HeLa-JRFL effector, CEM21 target cells, luciferase | inhibition, % at 12.3 µM | 360,000 compounds, 1.1% hits | AID 651610, 2012;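 active means mean replicate inhibition score of at least 50 and every replicate individually at or above 50; inconclusive means only one of the two criteria met; inactive means mean below 50 and not all replicates reaching 50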;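 further: 0% = plate neutral controls and 100% = maraviroc near 300 nM; one replicate is shown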
Rce1 inhib – yeast Rce1p protease inhibitors, primary screen, biochemical, fluorescence, cell-free homogeneous; yeast membranes, quenched prenylated peptide cleavage fluorescence; AID 2563, 2010; calls only; 290,000 compounds, 0.27% hits; CAAX prenyl protease 2 (Saccharomyces cerevisiae (strain ATCC 204508 / S288c)), Q03530;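 active means fall in fluorescence gain of 50% or more versus controls, with final raw signal at or below 3038400; inconclusive means same 50% fall but final raw signal above 3038400; inactive means fall in fluorescence gain under 50%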;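 further: plate controls were neutral control wells for no effect and wells lacking membranes for full effect; tested at 10 µM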
Target sequence (Q03530 whole entry, looked up): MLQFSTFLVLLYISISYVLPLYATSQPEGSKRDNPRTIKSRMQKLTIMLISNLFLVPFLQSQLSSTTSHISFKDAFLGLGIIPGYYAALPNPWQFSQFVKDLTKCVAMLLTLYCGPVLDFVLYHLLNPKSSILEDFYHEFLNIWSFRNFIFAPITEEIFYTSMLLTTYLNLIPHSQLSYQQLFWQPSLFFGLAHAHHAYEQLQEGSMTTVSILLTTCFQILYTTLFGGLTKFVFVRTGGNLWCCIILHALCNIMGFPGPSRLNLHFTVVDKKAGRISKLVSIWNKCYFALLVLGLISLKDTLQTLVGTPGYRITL
eIF4H inh – human eIF4H binding inhibitors, primary screen, translation initiation inhibitor project, biochemical, uHTS, fluorescence polarization. inhibition, % at 35 µM. 290,000 compounds, 0.94% hits. Eukaryotic translation initiation factor 4H (Homo sapiens), Q15056. eIF4H fluorescence polarization binding assay. AID 2012, 2009;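 active means 50% or more with normal probe brightness, or confirmed in later tests; inconclusive means above 50% with abnormal brightness, or retests that disagree; inactive means below 50% or failed in later tests; about a fifth of its hits are not listed in these tables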;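 further: calls also rest on retests at 20 µM and on dose response follow-up; 0% = protein and probe with vehicle and 100% = probe without protein; strong numbers were not always called active; many hits fall short of the cut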
MT1-MMP act inh – blockers of MT1-MMP proenzyme processing, primary screen, HT1080 RFP-PRO-GFP cells, GFP/RFP fluorescence; 360,000 compounds, 0.061% hits; GFP/RFP ratio fluorescence, overnight; percent of plate control window, DMSO zero; Matrix metalloproteinase-14 (Homo sapiens), P50281; AID 651647, 2012; GFP/RFP ratio change, % at 20 µM;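 active means GFP/RFP ratio change of at least 30% with cell ATP level not reduced by more than half and red fluorescence within 50% of control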; further: strong numbers were not always called active
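system = RFP-PRO-GFP reporter HT1080 cells | dosing = 20 µM single dose, 1% DMSO | timing = overnight cell settling, then overnight compound exposure, 37 °C, 5% CO2 | read-out basis = GFP/RFP fluorescence ratio | controls = DMSO and RFP-L50D-GFP cell wells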
MT1-MMP act inh RFP – also measured in MT1-MMP act inh; calls as there; RFP signal change, %; measured here: RFP expression control read;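 0 = vehicle wells; hits needed this value within 50% of zero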
The depositor's hits bear a star; i = inactive; u = inconclusive; x = no result given.

Molecule,UUG fidelity,CSC inhib,PABP polyA inh,HIV Env fusion,Rce1 inhib,eIF4H inh,MT1-MMP act inh,MT1-MMP act inh RFP
COc1nc(-c2ccccc2)ccc1-c1noc(C)n1,-17,-3,1,-185,i,-9,2,-2
COc1ccc(CNC(=O)CN(C)S(=O)(=O)c2ccc3c(c2)c(=O)n(C)c(=O)n3C)cc1,-2,17,-4,8,i,-4,2,3
COc1ccccc1CCc1nnc(CCC(=O)N(C)Cc2cccc3cnccc23)o1,-4,-18,6,21,i,-3,-2,-4
Cc1nc2scc(C)n2c(=O)c1S(=O)(=O)N1CCN(c2ccccc2)CC1,x,-14,2,-18,i,9,1,0
O=C(NC(Cc1c[nH]c2ccccc12)C(=O)O)c1ccc(Br)cc1 (centres undefined),x,-4,32,0,i,-6,14,1
O=C(NCCCN1CCOCC1)NC1CCCCC1,15,-8,-1,x,i,-14,2,0
O=C1C(=O)N(Cc2ccco2)C(c2cccc(Cl)c2)/C1=C(\O)c1ccc2c(c1)OCCO2 (centres undefined),-5,-6,9,x,i,1,-8,1
CCCCC(=O)Nc1cc2nn(-c3ccc(OC)cc3)nc2cc1C,-11,-2,-4,x,i,-6,1,-7
CC(C)c1nc(SCC(=O)N2CCCc3ccccc32)c2c(=O)n(C)c(=O)n(C)c2n1,-8,26,5,26,i,1,-2,-13
CCc1ccccc1N(C)S(=O)(=O)c1ccc2[nH]cc(C(=O)O)c(=O)c2c1,x,-15,10,-13,i,3,-8,-5
COc1ccc(CN2CCN(CCC(C)C)C(CCO)C2)cc1Cn1cncn1 (centres undefined),x,-3,0,3,i,-1,-2,2
COc1ccc(CCn2c(SCC(=O)Nc3cc(C)on3)nc3ccccc3c2=O)cc1OC,-8,-10,6,-6,i,-14,7,-2

Next part:
Molecule,UUG fidelity,CSC inhib,PABP polyA inh,HIV Env fusion,Rce1 inhib,eIF4H inh,MT1-MMP act inh,MT1-MMP act inh RFP
Cc1csc(NC(=O)CCCc2cccs2)n1,-13,-7,-19,-18,i,0,-2,4
CC(C)COC(=O)CCNc1n[nH]c(=O)[nH]c1=O,-13,12,0,x,i,-4,3,7
COc1ccc(S(=O)(=O)NCc2ccncc2)cc1NC(=O)c1ccccc1C,x,-8,x,-3,i,x,-1,-6
COc1ccccc1NC(=O)CSc1nncn1-c1cccnc1,2,18,1,x,i,-7,-1,2
CCCC(CCC)C(=O)OC1C[C@H]2CC[C@@H](C1)[N+]2(C)C (some centres undefined),-1,-8,25,-6,i,-2,1,1
Cc1cc(S(=O)(=O)Nc2ccc(F)cc2)c(C)s1,-1,-8,7,-11,i,6,2,4
CC(C)(C)c1nnc(NC(=O)CCS(=O)(=O)Cc2ccccc2)s1,-9,-10,7,-7,x,-3,1,0
CCOc1ccccc1OCCCCN1CCCC1,-17,-16,2,-96,i,0,4,2
Cc1cc(NS(=O)(=O)c2ccc(NC(=O)/C=C/c3ccco3)cc2)nc(C)n1,-14,0,4,0,i,7,6,9
Cc1nc2ccc(NC(=O)NCCO)cc2s1,-14,-13,4,x,i,-5,8,7
COc1cc(NC(=O)c2cc(C)nc3ccccc23)cc(OC)c1OC,x,-6,31,-2,i,0,4,7
COc1cccc(N2CCN(C(=O)c3cc4ccc(OC)cc4[nH]3)CC2)c1,-4,-6,2,-9,i,-6,1,1

Next section.
Molecule,UUG fidelity,CSC inhib,PABP polyA inh,HIV Env fusion,Rce1 inhib,eIF4H inh,MT1-MMP act inh,MT1-MMP act inh RFP
COc1ccccc1NC(=O)/C(=C\c1cccs1)NC(=O)c1ccco1,-19,10,-1,-9,i,2,0,4
COc1cc(NC(=O)CN2C(=O)c3ccccc3Sc3ccc(C(=O)N4CCOCC4)cc32)cc(OC)c1OC,-7,x,-7,0,i,13,-3,-1
CCC(=O)Nc1nnc(SCCOC)s1,-21,5,4,-89,i,2,-2,-2
CC(=O)Nc1ccc(-c2ccnc3c2CC(C(=O)Nc2ccc(C(C)C)cc2)O3)cc1 (centres undefined),-21,x,x,-9,x,x,-3,-5
O=C(CS(=O)(=O)Cc1ccccc1)N1CCN(c2ccccc2F)CC1,-17,-4,0,-5,i,-6,4,0
Cc1cc(/C=N/NC(N)=S)c(C)n1-c1ccc(Cl)cc1,x,-1,36,-248,i,-1,-4,-4
CCOc1ccccc1-c1cc(-c2n[nH]c(=S)n2CC)c2ccccc2n1,x,-18,3,-30,i,-6,2,-13
CCC1CCC2(CC1)NC(=O)N(CC(=O)Nc1cc(C)on1)C2=O (centres undefined),1,-7,6,12,i,2,-3,0
Cc1cccc(NC(=O)CCCCCN2C(=O)[C@@H]3Cc4ccccc4CN3C2=O)c1,x,-8,2,6,i,4,1,1
COc1cc(NC(=O)Cn2c([N+](=O)[O-])cnc2C)c(OC)cc1Cl,-14,-13,5,1,i,4,15,2
COc1cc(/C=C/c2[nH]c(=O)[nH]c(=O)c2[N+](=O)[O-])cc([N+](=O)[O-])c1O,14,4,61*,-8,i,59*,19,2
CCC(=O)n1nc(-c2ccc(Cl)cc2)nc1N,x,-9,1,1,i,2,-1,4

Sorted by formula weight (lowest first): 14 of the compounds above.
Molecule,UUG fidelity,CSC inhib,PABP polyA inh,HIV Env fusion,Rce1 inhib,eIF4H inh,MT1-MMP act inh,MT1-MMP act inh RFP
CCC(=O)Nc1nnc(SCCOC)s1,-21,5,4,-89,i,2,-2,-2
CCC(=O)n1nc(-c2ccc(Cl)cc2)nc1N,x,-9,1,1,i,2,-1,4
CCOc1ccccc1OCCCCN1CCCC1,-17,-16,2,-96,i,0,4,2
Cc1cc(/C=N/NC(N)=S)c(C)n1-c1ccc(Cl)cc1,x,-1,36,-248,i,-1,-4,-4
CCC1CCC2(CC1)NC(=O)N(CC(=O)Nc1cc(C)on1)C2=O (centres undefined),1,-7,6,12,i,2,-3,0
COc1cc(/C=C/c2[nH]c(=O)[nH]c(=O)c2[N+](=O)[O-])cc([N+](=O)[O-])c1O,14,4,61*,-8,i,59*,19,2
COc1cc(NC(=O)c2cc(C)nc3ccccc23)cc(OC)c1OC,x,-6,31,-2,i,0,4,7
COc1cc(NC(=O)Cn2c([N+](=O)[O-])cnc2C)c(OC)cc1Cl,-14,-13,5,1,i,4,15,2
COc1cccc(N2CCN(C(=O)c3cc4ccc(OC)cc4[nH]3)CC2)c1,-4,-6,2,-9,i,-6,1,1
COc1ccccc1NC(=O)/C(=C\c1cccs1)NC(=O)c1ccco1,-19,10,-1,-9,i,2,0,4
O=C(CS(=O)(=O)Cc1ccccc1)N1CCN(c2ccccc2F)CC1,-17,-4,0,-5,i,-6,4,0
Cc1cccc(NC(=O)CCCCCN2C(=O)[C@@H]3Cc4ccccc4CN3C2=O)c1,x,-8,2,6,i,4,1,1
CC(=O)Nc1ccc(-c2ccnc3c2CC(C(=O)Nc2ccc(C(C)C)cc2)O3)cc1 (centres undefined),-21,x,x,-9,x,x,-3,-5
COc1cc(NC(=O)CN2C(=O)c3ccccc3Sc3ccc(C(=O)N4CCOCC4)cc32)cc(OC)c1OC,-7,x,-7,0,i,13,-3,-1

(further entries)
Molecule,UUG fidelity,CSC inhib,PABP polyA inh,HIV Env fusion,Rce1 inhib,eIF4H inh,MT1-MMP act inh,MT1-MMP act inh RFP
Cc1cc(S(=O)(=O)N2CCCCC2CCNC(=O)C(=O)NCc2cccnc2)ccc1F (centres undefined),-22,-10,x,3,i,x,-3,-3
Cc1ccc(C(C(=O)NC(C)(C)C)N(CCCN2CCOCC2)C(=O)c2ccc(-c3ccccc3)[nH]2)o1 (centres undefined),x,x,1,-3,i,-4,0,6
CCOc1ccccc1C(=O)OCC(=O)NCCc1ccc(OC)cc1,-12,-21,x,1,x,x,0,6
CCN(Cc1ccncc1)C(=O)c1ccc2c(c1)S(=O)(=O)c1ccccc1C2=O,x,-14,-3,6,i,-16,-3,-4
COc1ccc(-n2c(SCC(=O)Nc3ccc(NC(C)=O)cc3)nc3ccccc3c2=O)cc1,-8,x,8,18,i,-9,2,-3
O=C(CCC(=O)OCC(=O)c1ccc(Cl)cc1)NC1CCCCC1,-15,-14,3,-19,i,1,2,0
CO/N=C\CC(=O)Nc1ccc(Cl)c(Cl)c1,x,x,-6,-22,i,0,-3,-10
CCOC(=O)c1c(/N=C/C2=C(O)CC(C)(C)CC2=O)sc(C(C)=O)c1C,x,-8,12,-10,i,-4,2,3
NC(=O)C1C2C=CC(C2)C1c1ccccc1 (centres undefined),2,x,x,2,x,x,2,2
Nc1cc(S(=O)(=O)Nc2ccc(Br)cc2)ccc1Cl,x,19,-7,4,i,4,3,-1
Cc1ccccc1NC(=O)c1cccc(S(=O)(=O)Oc2ccc([N+](=O)[O-])cc2)c1,-11,-3,4,x,i,8,7,-6
Cc1noc(C)c1C(=O)Nc1ccc(Cl)cc1C(F)(F)F,-5,0,-6,x,i,-5,-5,1

Additional entries follow.
Molecule,UUG fidelity,CSC inhib,PABP polyA inh,HIV Env fusion,Rce1 inhib,eIF4H inh,MT1-MMP act inh,MT1-MMP act inh RFP
COc1ccc(CCNC(=O)C2CCN(S(C)(=O)=O)CC2)cc1,16,-7,4,x,x,-17,-2,-1
Cc1ccc(C(=O)NCc2ccc3c(c2)OCO3)cc1C,-14,-8,-6,-40,i,1,3,3
CSC1CCCCC1(O)CSc1nc2ccccc2o1 (centres undefined),-5,-6,-12,-19,i,-2,-4,11
CCCN(C(=O)CSc1cc(-c2ccccc2)c2ccc(OC)cc2n1)C1CCS(=O)(=O)C1 (centres undefined),x,66,-28,17,i,-4,1,0
CC(C)C(=O)N1CCc2cc(-c3csc(N)n3)ccc21,-21,0,24,-42,i,16,-16,3
C/C(=N\NC(=S)NCc1ccccc1)c1cccs1,-43,-12,4,-33,i,1,0,0
O=S(=O)(c1ccc(NCCc2c[nH]c3ccccc23)nc1)N1CCOCC1,6,-12,-6,-30,x,-2,5,-1
O=C(Nc1ccc([N+](=O)[O-])cn1)c1cccnc1,-7,19,6,-17,i,2,2,7
Cc1cccc(C2NC(c3cccc(C)c3)C(C)C(=O)C2C)c1 (centres undefined),-7,-6,4,-31,i,-5,1,3
CC(C)CC1Nc2ncnc(N3CCOCC3)c2N(Cc2ccc(Br)cc2)C1=O (centres undefined),16,-22,x,u,i,x,-2,-2
CCN(CC)CCCn1c(=S)[nH]c2cc(OC)c(OC)cc2c1=O,x,0,0,-24,i,-1,-11,-1
COc1ccc2c(c1)c(C(=O)CN1CCN(C(=O)c3ccco3)CC1)c(C)n2C,2,-9,12,26,i,2,x,x
Cc1ccc(S(=O)(=O)N(C)c2ccc3ccccc3c2)cc1,-8,-12,35,2,i,-9,0,-1
Cn1c(=O)c2c(SCC(=O)NCC3CCCO3)nc(-c3ccccc3Cl)nc2n(C)c1=O (centres undefined),11,-3,2,-16,i,-16,-4,1
O=C(N/N=C/c1ccccc1O)C1CCCC1,-16,-4,-4,-22,i,-4,3,-1
